# Source: PubChem BioAssay
# Rce1 inh – yeast Rce1p protease inhibitors, primary screen, biochemical, fluorescence, cell-free homogeneous; CAAX prenyl protease 2 (Saccharomyces cerevisiae (strain ATCC 204508 / S288c)), Q03530; yeast membranes, quenched prenylated peptide cleavage fluorescence; calls only; 0.27% of 290,000 active; AID 2563, 2010;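 active = fall in fluorescence gain of 50% or more versus controls, with final raw signal at or below 3038400; inconclusive = same 50% fall but final raw signal above 3038400; inactive = fall in fluorescence gain under 50%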;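 note: plate controls were neutral control wells for no effect and wells lacking membranes for full effect; tested at 10 µM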
# Target sequence (Q03530 whole entry, looked up): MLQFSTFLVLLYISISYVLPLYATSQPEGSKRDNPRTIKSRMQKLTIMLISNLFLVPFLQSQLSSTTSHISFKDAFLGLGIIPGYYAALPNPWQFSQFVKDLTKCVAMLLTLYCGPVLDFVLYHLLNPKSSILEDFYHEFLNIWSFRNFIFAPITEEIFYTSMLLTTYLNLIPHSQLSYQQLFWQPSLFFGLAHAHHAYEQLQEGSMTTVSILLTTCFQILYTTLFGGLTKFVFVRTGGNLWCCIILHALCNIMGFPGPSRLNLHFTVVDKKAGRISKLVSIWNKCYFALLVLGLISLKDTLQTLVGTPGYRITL
# MT1-MMP act inh – blockers of MT1-MMP proenzyme processing, primary screen, HT1080 RFP-PRO-GFP cells, GFP/RFP fluorescence | Matrix metalloproteinase-14 (Homo sapiens), P50281 | GFP/RFP ratio fluorescence, overnight; percent of plate control window, DMSO zero | GFP/RFP ratio change, % at 20 µM | 0.061% of 360,000 active | AID 651647, 2012;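 active = GFP/RFP ratio change of at least 30% with cell ATP level not reduced by more than half and red fluorescence within 50% of control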; note: strong numbers were not always called active
#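 Assay system: HT1080 RFP-PRO-GFP cells. Benchmarks: DMSO vehicle wells and RFP-L50D-GFP reporter cell wells. Times: overnight cell settling, then overnight compound exposure, 37 °C, 5% CO2. Compound: 20 µM single dose, 1% DMSO. Read-out basis: GFP/RFP fluorescence ratio.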
# CSC inhib – cancer stem cell viability inhibitors, primary screen, luminescence; AID 2717, 2010; inhibition, % at 7.5 µM; 1.1% of 300,000 active; cancer stem cell-like cells viability;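 active = mean at 75% or more and at least half the replicates too; inconclusive = mean and replicates disagree; tested in HMLE shEcad cells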;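 note: 0% = median of negative and 100% = median of positive control wells; the first replicate is given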
# UUG fidelity – modulators of yeast start codon fidelity, primary screen, whole organism, S. cerevisiae, single point, plate reader | S. cerevisiae UUG-firefly luciferase reporter, luminescence/redox ratio | activity score, % at 18.7 µM | 0.13% of 350,000 active;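 active = replicate mean at a twofold rise or more, about +100% in these data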;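 note: firefly luciferase made from a UUG start codon reports start codon fidelity; reporter light over untreated wells divided by growth signal over untreated wells; some hits fall short of that in this replicate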
# eIF4H inh – human eIF4H binding inhibitors, primary screen, translation initiation inhibitor project, biochemical, uHTS, fluorescence polarization; AID 2012, 2009; inhibition, % at 35 µM; 0.94% of 290,000 active; eIF4H fluorescence polarization binding assay; Eukaryotic translation initiation factor 4H (Homo sapiens), Q15056;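 active = 50% or more with normal probe brightness, or confirmed in later tests; inconclusive = above 50% with abnormal brightness, or retests that disagree; inactive = below 50% or failed in later tests; about a fifth of its hits are not listed in these tables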;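 note: calls also rest on retests at 20 µM and on dose response follow-up; 0% = protein and probe with vehicle and 100% = probe without protein; strong numbers were not always called active; many hits fall short of the cut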
# PABP polyA inh – PABP poly(A) RNA binding inhibitors, primary screen, biochemical, fluorescence polarization, uHTS | Polyadenylate-binding protein 1 (Homo sapiens), P11940 | inhibition, % at 35 µM | 1% of 290,000 active | AID 2014, 2009;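 active = 50% or more with normal probe brightness, or confirmed in later tests; inconclusive = above 50% with abnormal brightness, or retests that disagree; inactive = below 50% or failed in later tests; about a fifth of its hits are not listed in these tables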;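 note: calls also rest on retests at 20 µM and on dose response follow-up; controls were probe without protein and protein plus probe with vehicle; some compounds called inactive have numbers as strong as hits; many hits fall short of the cut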
# Target sequence (P11940 whole entry, looked up): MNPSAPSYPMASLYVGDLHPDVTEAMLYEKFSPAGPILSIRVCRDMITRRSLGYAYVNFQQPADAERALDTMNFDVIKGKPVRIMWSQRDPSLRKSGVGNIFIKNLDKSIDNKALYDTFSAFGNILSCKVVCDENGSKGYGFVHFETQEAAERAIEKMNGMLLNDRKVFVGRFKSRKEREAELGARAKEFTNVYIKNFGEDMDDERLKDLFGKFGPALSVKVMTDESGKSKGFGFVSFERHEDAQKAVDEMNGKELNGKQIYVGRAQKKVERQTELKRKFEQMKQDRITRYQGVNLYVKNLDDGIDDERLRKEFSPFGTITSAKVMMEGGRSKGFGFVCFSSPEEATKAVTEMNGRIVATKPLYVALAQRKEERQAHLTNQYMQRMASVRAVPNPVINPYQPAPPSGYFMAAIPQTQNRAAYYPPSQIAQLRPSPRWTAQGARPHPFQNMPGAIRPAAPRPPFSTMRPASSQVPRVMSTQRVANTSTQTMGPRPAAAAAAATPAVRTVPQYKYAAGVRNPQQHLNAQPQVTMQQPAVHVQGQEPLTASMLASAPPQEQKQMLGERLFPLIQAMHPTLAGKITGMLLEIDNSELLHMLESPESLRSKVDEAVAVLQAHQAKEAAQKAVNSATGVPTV
# Env fusion inh – inhibitors of HIV-1 Env-driven cell-cell fusion, primary screen, HeLa-JRFL effector, CEM21 target cells, luciferase. 1.1% of 360,000 active. inhibition, % at 12.3 µM. AID 651610, 2012;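 active = mean replicate inhibition score of at least 50 and every replicate individually at or above 50; inconclusive = only one of the two criteria met; inactive = mean below 50 and not all replicates reaching 50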;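 note: 0% = plate neutral controls and 100% = maraviroc near 300 nM; one replicate is shown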
# eIF4H inh retest – also measured in eIF4H inh; calls as there; inhibition, %; compound at 20 µM; confirmation average;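 mean of two retest wells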
# PABP polyA inh retest – further read-out of PABP polyA inh, marked with its call; inhibition, %; compound at 20 µM; confirmation repeats;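 mean of two retest wells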
# MT1-MMP act inh RFP – second read-out of MT1-MMP act inh, no call of its own (marks repeat the call); RFP signal change, %; measured here: RFP expression control read;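 0 = vehicle wells; hits needed this value within 50% of zero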
# An asterisk follows results filed as active; i = inactive; ? = inconclusive; . = not tested or not shown; & = joins results of further samples.
SMILES,Rce1 inh,MT1-MMP act inh,MT1-MMP act inh RFP,CSC inhib,UUG fidelity,eIF4H inh,PABP polyA inh,Env fusion inh,others
CCS(=O)(=O)c1ccc(C(=O)Nc2cccc(Cl)c2)c(Cl)c1Cl,i,5,-11,7,2,1,-5,.,
Cc1ccc(C(=O)N[C@H](C(=O)Nc2cc(Cl)cc(Cl)c2)C(C)C)cc1,i,16,6,.,-5,1,2,-16,
CCOc1ccc(C(O)Cn2c(=N)n(CCN3CCCCC3)c3ccccc32)cc1 (stereo unspecified),i,5,-3,-7,-6,-4,22,34,
CCc1ccc(Nc2nc(N3CCOCC3)nc(N3CCOCC3)n2)cc1,i,-6,-6,-8,-15,0,-3,-7,
Fc1ccc(Nc2nc(-c3cccnc3)cs2)cc1,i,-3,-8,12,.,-10,3,-29,
Cc1cc(NC(=O)CSCc2ccccc2)no1,i,-5,-1,-3,.,2,-2,-5,
O=C(NCC1CCCN1S(=O)(=O)c1cccs1)c1ccc([N+](=O)[O-])cc1 (stereo unspecified),i,3,-7,2,.,.,.,-2,
CC(C)CC1c2[nH]c3ccccc3c2CCN1CCCn1cccn1 (stereo unspecified),i,-3,2,-2,.,-1,-7,-4,
CN(C)Cc1c(C(=O)N/N=C/c2cccs2)nnn1-c1nonc1N,i,5,3,-6,-14,-2,11,2,
COCCN(CC(=O)NC1CCCCC1)C(=O)CSc1nc2ccccc2o1,i,5,2,-8,.,7,-3,-264,
Cc1ccc2nc(-c3cccc(SC4CCCCC4)c3)c(NCc3ccccc3)n2c1,.,12&1,-8&-19,.,-24,.,.,28&22,
COC(=O)C1CN(C(=O)COc2ccc(C)c(C)c2)c2ccccc2O1 (stereo unspecified),i,-1,2,-15,.,-6,4,-5,
CCCCN1CC(=O)N2[C@H](c3ccc(Cl)cc3)[C@@H]3C(=O)N(CC)C(=O)[C@@H]3[C@]2(C)C1=O,i,1,2,4,-8,-15,-4,14,
CCOC(=O)N1CCN(c2c(NCC3CCN(Cc4cccc(C)c4)CC3)c(=O)c2=O)CC1,i,-3,2,0,-24,1,3,11,
CC1CN(c2nc3ccccc3nc2C(C#N)C(=O)NC2CCCCC2)CC(C)O1 (stereo unspecified),i,.,.,17,.,?,?,.,
Cn1c(SCC(=O)Nc2sccc2C(N)=O)nc2ccccc2c1=O,.,1,-7,18,-20,.,.,18,
O=c1c2c3c(sc2nc(N2CCNCC2)n1-c1cccc(Cl)c1)CCCCC3,i,.,.,17,.,-7,-13,.,
Cc1cc(N2CCOCC2)ncc1[N+](=O)[O-],i,-7,-3,-1,-23,7,0,-141,
CC(C)OCCCN(C)C1CCN(S(=O)(=O)c2csc(C(N)=O)c2)CC1,i,0,0,3,.,-16,1,5,
CCc1ccc2[nH]c(=O)c(C3C(C#N)=C(N)Oc4c3ccc3cccnc43)cc2c1 (stereo unspecified),i,-8,-4,97*,-28,59,1,-85,eIF4H inh retest=29;PABP polyA inh retest=10
Cc1ccc(O)c(C2=Nc3ccccc3C2(C)C)c1,i,1,0,12,-17,-5,3,-37,
Cc1cc(=O)[nH]c(SCC(=O)c2ccc3c(c2)NC(=O)CO3)n1,i,-1,2,-12,.,1,-9,-20,
COC(=O)Cc1c(O)ccn(Cc2ccc(OC)c(OC)c2)c1=O,i,1,0,6,-13,-13,-5,1,
COc1cc2c(cc1OC)C(c1ccc(OC)c(OC)c1OC)CC(=O)N2 (stereo unspecified),i,-2,6,-8,13,-6,2,19,
O=C(COC(=O)c1ccco1)c1ccc(Cl)cc1,i,2,3,-5,-29,-3,-5,-7,
CCOCCCn1c(=NC(C)=O)c(C#N)cc2c(=O)n3ccccc3nc21,i,1,7,0,-6,?,?,-10,
COc1ccccc1C(=O)NCCC(=O)Nc1cccc(S(=O)(=O)N2CCCC2)c1,.,1,-1,-15,0,.,.,21,
CC(=O)c1ccc(OCC(=O)OCC(=O)Nc2sccc2C(N)=O)cc1,.,0,2,-10,-7,.,.,0,
CC(O)(CS(=O)(=O)Cc1cccc(C(F)(F)F)c1)C(=O)Nc1cccc(C(F)(F)F)c1 (stereo unspecified),i,9,5,10,4,5,2,59*,
CCC(C)N(C(=O)Cn1c(Cl)nc2c1c(=O)n(C)c(=O)n2C)C1CCS(=O)(=O)C1 (stereo unspecified),i,1,8,-8,-17,-7,2,5,
COc1cc(C(=O)NCC(c2cccs2)N(C)C)cc(Cl)c1OC(C)C (stereo unspecified),i,4,1,18,-1,0,1,-29,
CC1CCCN(S(=O)(=O)c2ccc(NC(=O)C3CC(=O)N(C(C)(C)C)C3)cc2)C1 (stereo unspecified),i,1,-5,-6,7,.,.,9,
C=CCN(c1ccc(Br)cc1C(=O)OC)S(C)(=O)=O,.,-2,4,-12,2,.,.,7,
O=C(CSc1nnc2ccccn12)Nc1ncc(Cl)cc1Cl,i,3,3,-8,-20,-5,8,-30,
Cn1ccc(C(=O)N/N=C/c2c[nH]c3ccccc23)n1,i,.,.,.,-4,-6,1,-10,
O=C(Nc1cc([N+](=O)[O-])ccc1O)c1cccc([N+](=O)[O-])c1,i,7,-19,-1,1,-10,9,-85,

# A draw from above in order of heavy-atom count, ascending.
SMILES,Rce1 inh,MT1-MMP act inh,MT1-MMP act inh RFP,CSC inhib,UUG fidelity,eIF4H inh,PABP polyA inh,Env fusion inh,others
O=C(COC(=O)c1ccco1)c1ccc(Cl)cc1,i,2,3,-5,-29,-3,-5,-7,
C=CCN(c1ccc(Br)cc1C(=O)OC)S(C)(=O)=O,.,-2,4,-12,2,.,.,7,
Cn1ccc(C(=O)N/N=C/c2c[nH]c3ccccc23)n1,i,.,.,.,-4,-6,1,-10,
O=C(CSc1nnc2ccccn12)Nc1ncc(Cl)cc1Cl,i,3,3,-8,-20,-5,8,-30,
COC(=O)Cc1c(O)ccn(Cc2ccc(OC)c(OC)c2)c1=O,i,1,0,6,-13,-13,-5,1,
CC(=O)c1ccc(OCC(=O)OCC(=O)Nc2sccc2C(N)=O)cc1,.,0,2,-10,-7,.,.,0,
CCOCCCn1c(=NC(C)=O)c(C#N)cc2c(=O)n3ccccc3nc21,i,1,7,0,-6,?,?,-10,
CCC(C)N(C(=O)Cn1c(Cl)nc2c1c(=O)n(C)c(=O)n2C)C1CCS(=O)(=O)C1 (stereo unspecified),i,1,8,-8,-17,-7,2,5,
COc1ccccc1C(=O)NCCC(=O)Nc1cccc(S(=O)(=O)N2CCCC2)c1,.,1,-1,-15,0,.,.,21,
CC(O)(CS(=O)(=O)Cc1cccc(C(F)(F)F)c1)C(=O)Nc1cccc(C(F)(F)F)c1 (stereo unspecified),i,9,5,10,4,5,2,59*,

# Later entries.
SMILES,Rce1 inh,MT1-MMP act inh,MT1-MMP act inh RFP,CSC inhib,UUG fidelity,eIF4H inh,PABP polyA inh,Env fusion inh,others
Cc1c(NC(=O)c2ccc3nsnc3c2)cccc1[N+](=O)[O-],i,-1,1,-4,-23,-12,1,5,
COC(=O)c1ccc(C2NC(C(=O)O)CS2)cc1 (stereo unspecified),i,3,1,-3,-19,-8,-4,-37,
CCN(CC)S(=O)(=O)c1cccc(-c2n[nH]c(=S)n2CC(C)C)c1,i,3,-1,-10,.,12,39,-1,
CCC(C)NC(=O)C1(NC(=O)Nc2ccccc2)CCCCC1 (stereo unspecified),i,2,2,31,.,4,-4,2,
Cc1cc(SCC(=O)N2CCCC2)nc2ccccc12,i,9,1,3,-5,-7,-9,-20,
CCn1c(SCC(=O)Nc2cc(S(=O)(=O)N3CCOCC3)ccc2OC)nnc1-c1ccncc1,i,3,7,-11,.,-7,3,15,
Cc1cc(-n2c(C)cc(C(=O)CSc3ccccn3)c2C)no1,.,0,-3,-13,-20,.,.,-81,
CC1(C)NC(=O)N(CCC(=O)Nc2ccc(C(C)(C)C)cc2)C1=O,.,-4,3,.,1,.,.,-11,
Cc1ccc(S(=O)(=O)N(C)CC(=O)N2CCCC2)cc1,i,-2,4,.,.,6,-4,.,
CN1CCN(C(=O)CN(C2CCCCC2)S(=O)(=O)c2ccc(Br)cc2)CC1,i,-2,-3,-2,-10,-8,-4,.,
CCOc1ccc(C(=O)NNC2CC(=O)N(Cc3ccc(Cl)cc3)C2=O)cc1OC (stereo unspecified),i,3,6,-2,.,10,-9,7,
CN(C)c1ccc(C(=O)c2ccccc2C(=O)O)cc1[N+](=O)[O-],i,3,4,-12,.,-8,-4,13,
Cc1[nH]c2ccc(F)cc2c1CCN(Cc1ccco1)C(=S)NC(C)(C)C,i,-3,0,4,.,-3,-15,21,
Cc1ccc2nc(Cc3ccc(N)cc3)oc2c1,i,9,2,19,-12,-8,-13,.,
CCCCn1cnc2c(SCc3ccc(Cl)cc3)nc(N)nc21,.,3,-14,.,-14,.,.,-6,
O=C(Cc1cccs1)Nc1cccc(C(=O)Nc2ccc(C(=O)O)cc2)c1,i,3,3,-13,.,-5,3,3,
O=C(Nc1nnc(Cc2ccc([N+](=O)[O-])cc2)s1)Nc1ccccc1F,i,0,-6,2,-19,7,-1,9,
Cc1ccc(C)c(C(=O)CSc2nnnn2-c2cccnc2)c1,i,-4,-2,3,-13,-5,3,.,
CCOc1ccc(-c2cc(NC(=O)Cn3ncc4c3-c3ccccc3OC4)on2)cc1OCC,i,-2,-5,36,-14,-4,-5,7,
CC(=O)Nc1ccc(NC(=O)CSc2nnc3ccc(-c4ccc(F)cc4)nn23)cc1,i,2,-9,-5,.,-11,-6,3,
COc1ccc(CCNC(=O)c2cccc3c2C(=O)N(C2CCCCC2)C3)cc1OC,i,-1,-6,-10,3,.,.,5,
Cc1cccc(NC(=S)NC(=O)c2ccco2)c1C,i,4,4,-4,-33,0,-6,-16,
Cc1ccc(S(=O)(=O)N2[C@@H](c3ccc(C(C)(C)C)cc3)C(C(=O)O)=CC[C@H]2c2ccc3c(c2)OCO3)cc1,.,-5,-3,.,-24,.,.,12,
COC(=O)c1ccc(CN2C(=O)NC(CC(C)C)C2=O)cc1 (stereo unspecified),i,0,3,-13,-4,-3,7,-4,
CCOC(=O)N1CCN(Cc2nc3cc([N+](=O)[O-])ccc3n2C)CC1,i,0,0,-1,-2,-11,-4,14,
COc1ccc(S(=O)(=O)N2CCN(C(=O)c3ccccc3Cc3ccccc3)CC2)cc1OC,.,0,-3,.,-2,.,.,-45,
Oc1ccc2ccccc2c1C=Nc1ccccc1-c1nc2ccccc2[nH]1,i,6,0,-6,.,7,-2,.,
